Assay outcomes from PubChem BioAssay.
SARS PLP yeast: blocks SARS-CoV papain-like protease in a yeast assay. S. cerevisiae expressing SARS-CoV PLpro, growth rescue; control for the full effect not named in the record. AID 485353. Potency, µM (titrated, usually from 32.9 µM), without a hit: top-dose activity, positive = growth rescue. 0.19% of 330,000 active; note: 0% is about no effect; nearly all actives have a fitted effect of over 55% in size; growth read by luminescence after 48 h
Marburg entry inh: Marburg virus entry inhibition; Marburg virus pseudotyped entry inhibition, cell reporter; control for the full effect not named in the record; about a third of the inactives were read at about 46 µM; Potency, µM (titrated, usually from 37.8 µM), inactives show top-dose activity change, negative = inhibition, actives largely listed as inhibitors; 1.8% of 300,000 active; AID 540276; active = well fitted inhibition curve with a large enough effect; inconclusive = small, poorly fitted or top-dose-only effect, or effect the other way; inactive = flat fitted curve, though single readings scatter; tested in HEK293 cells; about a fifth of its hits are not listed in these tables; note: % is set by controls: 0 for no effect and ±100 for the full control effect; luciferase read-out
Cruzain inh Det: cruzain (T. cruzi) inhibition with detergent; Potency, µM, for inactives: max response, negative = inhibition, hits mostly inhibitors; 0.43% of 200,000 active; AID 1478; purified cruzain, Z-FR-AMC fluorescence, 0.01% Triton; active = well fitted curve in the direction sought with a large enough effect; inconclusive = small, poorly fitted or top-dose-only effect, or another doubt; inactive = no such curve, though single readings can be large; an effect the other way counts as inactive or inconclusive;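 note: plate controls were neutral wells for no effect and buffer without enzyme for full effect; nearly all actives have a fitted effect of over 40% in size; top concentration of the series not given in the record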
Target sequence (P25779 123-467 limits assumed): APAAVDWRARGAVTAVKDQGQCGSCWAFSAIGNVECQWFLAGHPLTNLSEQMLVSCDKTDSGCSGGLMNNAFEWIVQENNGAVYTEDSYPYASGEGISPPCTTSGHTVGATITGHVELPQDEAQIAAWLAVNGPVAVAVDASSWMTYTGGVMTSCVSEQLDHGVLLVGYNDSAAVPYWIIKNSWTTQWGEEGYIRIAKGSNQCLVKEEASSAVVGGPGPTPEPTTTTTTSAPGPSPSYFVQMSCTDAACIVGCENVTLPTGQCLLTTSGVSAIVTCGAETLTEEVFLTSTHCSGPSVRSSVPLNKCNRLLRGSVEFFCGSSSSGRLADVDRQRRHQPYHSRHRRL
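Z-FR-AMC hydrolysis (2 uM substrate) by cruzain (1.5 nM) monitored kinetically at ex 360/em 450 nm after 15 min room-temperature compound exposure; 0.01% Triton X-100, pH 5.5, 5 mM DTT.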
Lassa entry inh: inhibitors of Lassa virus binding or cell entry | Lassa virus pseudotype entry inhibition, cell reporter; control for the full effect not named in the record | Potency, µM (highest dose often 37.9 µM), for inactives: top-dose activity change, negative = inhibition, hits mostly inhibitors | 1.2% of 300,000 active | AID 540256; active means well fitted inhibition curve with a large enough effect; inconclusive means small, poorly fitted or top-dose-only effect, or effect the other way; inactive means flat fitted curve, though single readings scatter; tested in HEK293 cells; note: % is set by controls: 0 for no effect and ±100 for the full control effect; nearly all actives have a fitted effect of over 50% in size; luciferase read-out
NS1 function inh: influenza NS1 inhibition. S. cerevisiae slowed by influenza A NS1, growth recovery by OD600. 0.4% of 270,000 active. Potency, µM (titrated, usually from 46.1 µM), inactives show top-dose activity, positive = more growth. AID 2326; note: actives are rising curves; nearly all actives have a fitted effect of over 50% in size
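A cell-based growth assay was used: compounds that relieve NS1-induced slow growth of budding yeast raise OD600. Assay medium was yeast nitrogen base with ammonium sulphate and -URA supplement, pH 6.0, with 2% galactose.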
RE007 growth inh: less growth of the S. pombe RE007 Vpr strain; S. pombe RE007 Vpr strain, BacTiter-Glo ATP luminescence, 24 h; control for the full effect not named in the record; Potency, µM (titrated, usually from 92.2 µM), without a hit: at the top dose activity change, negative = less growth; 0.21% of 360,000 active; active = well fitted falling curve with a large enough effect; inconclusive = small, poorly fitted or top-dose-only effect; inactive = no such curve, though single readings can be large or run the other way;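 note: % is set by controls: 0 for no effect and ±100 for the full control effect; nearly all actives have a fitted effect of over 50% in size; the assay follows cell death caused by Vpr and the record does not say whether a fall means rescue or toxicity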
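Fission yeast strain RE007, carrying one chromosomally integrated HIV-1 vpr copy, was seeded at OD 0.01 in PMG+AL medium with 23 nL pinned compound. After 24 h at 30 °C and 99% humidity, viability was read by BacTiter-Glo luminescence.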
Cruzain inh noDet: inhibitors of Trypanosoma cruzi cruzain without detergent | AID 1476 | purified cruzain, Z-FR-AMC fluorescence, no detergent | 2.3% of 200,000 active | Potency, µM, inactives show max response, negative = inhibition, hits mostly inhibitors | P25779; active = well fitted curve in the direction sought with a large enough effect; inconclusive = small, poorly fitted or top-dose-only effect, or another doubt; inactive = no such curve, though single readings can be large; an effect the other way counts as inactive or inconclusive;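 note: plate controls were enzyme without inhibitor for no effect and buffer without enzyme for full effect; nearly all actives have a fitted effect of over 40% in size; top concentration of the series not given in the record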
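Purified cruzain at 1.5 nM, pre-incubated 15 min with compound at room temperature in 100 mM sodium acetate pH 5.5, 5 mM DTT, 0.00005% Triton X-100. Reaction started with 2 uM Z-FR-AMC; AMC fluorescence increase over 60 s gives rate.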
2A StopGo: lowers the luciferase signal of an FMDV 2A StopGo reporter | 1.2% of 410,000 active | Potency, µM (series often up to 57.9 µM), inactives show at the highest dose signal change, negative = less light | AID 1159524 | human cells with a luciferase reporter of 2A StopGo recoding; control for the full effect not named in the record; active = well fitted falling curve with a large enough effect; inconclusive = small, poorly fitted or top-dose-only effect; inactive = no such curve, though single readings can be large or run the other way; tested in HEK293T cells; note: % is set by controls: 0 for no effect and ±100 for the full control effect; nearly all actives have a fitted effect of over 45% in size; luciferase light after 4 h
Numbers without * were called inactive; ? = inconclusive; . = no result given; & = joins results of further samples; [ ] = remark or other dose. Unless noted, calls come from the whole dose curve; as a rule, active means well fitted rising curve with a large enough effect; inconclusive means small, poorly fitted or top-dose-only effect; inactive means no such curve, though single readings can be large or run the other way. Potency is the fitted concentration of half-maximal effect.

SMILES | SARS PLP yeast | Marburg entry inh | Cruzain inh Det | Lassa entry inh | NS1 function inh | RE007 growth inh | Cruzain inh noDet | 2A StopGo
CC(Oc1ccc(Br)cc1)C(=O)NCC(c1ccco1)N1CCCCC1 (stereo not given) | 3% | 2% | . | 2% | . | -6% | . | -20%
CC(C)CC(C(=O)NC(=O)NCc1ccccc1)N1C(=O)c2ccccc2C1=O (stereo not given) | -1% | -6% | -5.7% | -3% | 2% | 0% | 2% | -16%
O=C(CNS(=O)(=O)c1ccccc1)N1CCN(Cc2ccccc2)CC1 | 4% | 1% | . | 5% | -8% | 0% | . | 5%
CCCCC(=O)Nc1c(O)c2ccccc2[nH]c1=O | ? | 11%&11% | 3.1% | 3% | -12% | -7% | -2% | -3%
Cc1ccc(S(=O)(=O)c2c(Nc3ccccc3)sc(C(=O)c3ccc4c(c3)OCO4)c2N)cc1 | . | . | -3.7% | ? | . | . | 7.9µM* | 8%
O=C(O)c1cn(Cc2ccccc2)nc1-c1ccccc1 | -3% | 19%[46.1 µM] | . | 2%[46.1 µM] | 0% | 1% | . | -3%
COc1cc(C(=O)Nc2ccc3c(c2)CCCN3C(=O)c2ccco2)c([N+](=O)[O-])cc1OC | -6% | -6% | . | -6% | . | -1% | . | -22%
COC(=O)CC/C(O)=C1/C(=N)CC(C)(C)CC1=O | 7% | -1% | 1.5% | 9% | 0% | 8% | 0% | -1%
Cc1ccccc1CNC(=O)c1cc(COc2ccc(F)cc2F)on1 | -3% | -1% | . | ? | -6% | 9% | . | 6%
O=C(Nc1cc2c(cc1Cl)OCCCO2)c1ccccc1 | -9% | ? | 0.9% | 13% | -4% | ? | 0% | 47%[activator]
COc1cc(Cl)c(NS(=O)(=O)c2cc3[nH]c(=O)c(=O)[nH]c3cc2C)c(OC)c1 | -3% | . | . | 22%[46.1 µM] | 1% | 9% | . | -3%&-5%
Cc1cccc(C)c1OCc1cc(C(=O)NC2CCC(O)CC2)no1 (stereo not given) | 0% | . | . | . | -5% | -3% | . | 21%
CCOC(=O)C1(CCC(=O)OCc2ccccc2)CCCCC1=O (stereo not given) | . | 3% | . | 6% | . | 7% | . | -4%
CC1=C2C(=O)C3C(CC=C4CC(OC5OC(O)C(O)C(O)C5CO)CCC43C)C2CCC12OC1CC(C)CNC1C2C (stereo not given) | -5% | 23%[46.1 µM] | . | 7% | -2% | 28% | . | -25%
COc1ccc(N2CCN(c3ncnc4nc[nH]c34)CC2)cc1 | -5% | -3% | -0.5% | 12% | -43% | -6% | -7% | 0%
CCOc1ccc(NC(=O)CSc2nnc(-c3ccco3)n2C)cc1 | 0% | 11% | -3.5% | 12% | 3% | -3% | -3% | 0%
COc1ccc(-n2c(C)nc3cc(C(=O)NCc4ccco4)ccc32)cc1 | 2% | -19% | 5.0% | 3% | -23% | 6% | -2% | 4%
COc1ccc(C(=O)OCCN2CCCCC2)cc1 | 3% | ? | . | ? | . | 14% | . | 10%
CC(C)Cc1cc(C(=O)N2CCN(C(c3ccccc3)c3ccccc3)CC2)no1 | -19% | -1% | -3.8% | . | -4% | 13% | -4% | -25%
CCOCCCNCc1c(Cl)cccc1Cl | 6% | 23% | 0.8% | 9% | 5% | -5% | 0% | -14%
Cc1ccc(S(=O)(=O)n2ccc(=O)[nH]2)cc1 | 1% | . | . | . | -1% | -5% | . | 8%
Cc1ccc(NC(=S)N/N=C2\CCCCC2C)cc1 (stereo not given) | -3% | ? | . | -5% | . | 7% | . | 0%
COC(=O)CCN(C(=O)c1cccc([N+](=O)[O-])c1)c1ccccn1 | -1% | 2%[46.1 µM] | . | 24%[46.1 µM] | . | -8% | . | -3%
COc1ccccc1OCC#CCN1CCCCCC1 | -1% | . | . | . | 6% | -4% | . | -2%
CCc1cc2c(SCC(=O)C(C#N)=C3N(C)c4ccccc4N3C)ncnc2s1 | 3% | ? | -6.7% | 21% | -5% | 30% | ? | -17%
Cc1cc(C(=O)NNC(=S)NC(C)c2ccccc2)c2ccccc2n1 (stereo not given) | -1% | 5% | 1.8% | 14% | -3% | 0% | 1% | -22%
Cc1ccc(S(=O)(=O)/C(=C\N(C)C)c2cnc(Cl)s2)cc1 | 1% | -8%[14.2 µM] | . | 8% | 8% | 3% | . | 35%[activator]
COCCNC(=O)CN(C(=O)c1ccc(N2CCCC2)nc1)c1ccc(F)c(Cl)c1 | 0% | -1%[46.1 µM] | . | -5%[46.1 µM] | 18% | -22% | . | -4%
CCN(C1CCCCC1)S(=O)(=O)c1cn(C)c(=O)n(C)c1=O | 6% | . | -4.5% | . | -42% | 1% | 3% | -15%
COc1ccc(CN2CN(c3ccc(Cl)cc3)C(=O)N(n3cnnc3)C2)cc1 | 2% | -4% | -6.0% | -2% | -2% | 11% | -5% | 6%
Cc1ccc(CNc2nnnn2C)cc1 | -7% | . | . | . | 5% | 9% | . | 7%
Cc1c(C(=O)NNC(=S)Nc2cccc(Cl)c2)nnn1-c1ccccc1 | 4% | ? | -2.1% | 0% | -12% | -8% | -2% | 28%
O=C(O)C1CCN(S(=O)(=O)c2ccc(Cl)s2)CC1 | 1% | 10%[46.1 µM] | . | -2%[46.1 µM] | . | 18% | . | -2%
O=C(NNS(=O)(=O)c1ccccc1[N+](=O)[O-])c1cc2ccccc2cc1O | -6% | 21%[46.1 µM] | . | 10%[46.1 µM] | -9% | -21% | . | 30%
O=C(CN1CCC(NC(=O)Nc2ccccc2)CC1)Nc1cccc([N+](=O)[O-])c1 | 2% | -19%[46.1 µM] | . | 9% | -11% | 6% | . | -25%
O=C(CCC(=O)OCC(=O)c1ccc(Br)cc1)NC1CCCCC1 | -3% | -5%[46.1 µM] | 1.3% | ? | 1% | 8% | 1% | -21%
Cc1cc(-c2[nH]nc3c2C(c2ccc(Cl)cc2)C(C#N)=C(N)O3)c(C)s1 (stereo not given) | 11% | 12% | -14% | ? | 17% | -1% | ? | 2%
Cc1ccccc1C(=O)NC1CCS(=O)(=O)C1 (stereo not given) | 9% | 16%[46.1 µM] | 6.8% | -5% | 0% | 14% | 11% | 1%
Oc1ccccc1C1N=C(c2ccccc2)NC(c2ccccc2)=N1 | -14% | -6% | -2.5% | -9% | -6% | -2% | -4% | 12%
N#Cc1c(NC(=O)CSc2nc3ccccc3s2)sc2c1CCCC2 | -1% | 8% | -6.8% | 9% | 3% | -16% | ? | -21%
O=C(Nc1ccccc1C(=O)O)c1cccc(NC(=O)c2ccc(Br)o2)c1 | -5% | 7%&7% | -4.2% | 7% | -63% | -3% | 0% | 10%
C[C@@H]1NC(=O)/C(=C\c2ccccc2Br)NC1=O | 1% | 8% | . | ? | -6% | -15% | . | 13%
Nc1nn(-c2ccccc2)c(N)c1N=Nc1ccc2c(c1)OCO2 | -30% | 8.9µM* | -11% | ? | 26% | -10% | ? | -15%
CC/C(=N\NC(=S)Nc1cccc(C)c1)c1ccccc1 | -1% | -20%[46.1 µM] | . | ? | -60% | -11% | . | 32%[activator]
Cc1cc(NS(=O)(=O)c2ccc(NC(=O)COc3ccc(Cl)cc3Cl)cc2)no1 | 2% | ? | . | 4% | 18% | 0% | . | -6%
CC(=O)N1N=C(c2ccc3ccccc3c2)OC12CCCC2 | 1% | -25%[46.1 µM] | . | ? | -4% | 1% | . | ?
Cc1ccc(-c2cc(C(=O)N3CCCc4ccccc43)no2)cc1 | -3% | -27% | . | 0% | -43% | -18% | . | 22%
O=C(CCNc1n[nH]c(=O)[nH]c1=O)N/N=C/c1ccc(Cl)cc1 | -1% | ? | . | 6%[46.1 µM] | . | 2% | . | 17%
COc1ccc(C(=O)Nc2ccc(O)c3ccccc23)cc1OC | . | 7% | . | -18% | . | 7% | . | 2%
Nc1nnc(CCCCc2cccs2)o1 | -1% | 9% | 2.9% | -12% | -9% | 3% | 3% | -1%

Reprinted at random: two entries already listed
SMILES | SARS PLP yeast | Marburg entry inh | Cruzain inh Det | Lassa entry inh | NS1 function inh | RE007 growth inh | Cruzain inh noDet | 2A StopGo
O=C(Nc1ccccc1C(=O)O)c1cccc(NC(=O)c2ccc(Br)o2)c1 | -5% | 7%&7% | -4.2% | 7% | -63% | -3% | 0% | 10%
O=C(CCNc1n[nH]c(=O)[nH]c1=O)N/N=C/c1ccc(Cl)cc1 | -1% | ? | . | 6%[46.1 µM] | . | 2% | . | 17%

Other structures:
SMILES | SARS PLP yeast | Marburg entry inh | Cruzain inh Det | Lassa entry inh | NS1 function inh | RE007 growth inh | Cruzain inh noDet | 2A StopGo
CC(=O)c1ccc(NC(=O)c2ccn[nH]2)cc1 | -11% | ? | 0.0% | ? | -1% | -3% | ? | 2%
COc1ccc(C2=NC(C(F)(F)F)(C(F)(F)F)c3c(n(C)c(=O)n(C)c3=O)N2)cc1 | 1% | ? | -2.4% | ? | -8% | 4% | 1% | ?
CC(=O)Nc1ccc(NC(=O)c2cc(-n3cnnc3)ccc2Cl)cc1 | -1% | . | . | . | 4% | 3% | . | -18%
COC(CN(C)C(=O)C1CCCN(S(=O)(=O)c2ccc3c(c2)oc(=O)n3C)C1)OC (stereo not given) | 6% | . | . | . | 2% | 11% | . | 15%

Single records (already shown).
Profile of COC(CN(C)C(=O)C1CCCN(S(=O)(=O)c2ccc3c(c2)oc(=O)n3C)C1)OC (stereo not given) = SARS PLP yeast: 6%; Marburg entry inh: .; Cruzain inh Det: .; Lassa entry inh: .; NS1 function inh: 2%; RE007 growth inh: 11%; Cruzain inh noDet: .; 2A StopGo: 15%
Profile of CC(=O)c1ccc(NC(=O)c2ccn[nH]2)cc1 = SARS PLP yeast: -11%; Marburg entry inh: ?; Cruzain inh Det: 0.0%; Lassa entry inh: ?; NS1 function inh: -1%; RE007 growth inh: -3%; Cruzain inh noDet: ?; 2A StopGo: 2%
